Anaer choline gr – inhibitors of anaerobic choline-dependent gram-negative bacterial growth; Gram-negative bacterium anaerobic choline minimal medium, absorbance growth; hits give low values; many inactives read as strong as hits in the columns shown; calls only; hit rate 0.2% among 55,000;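 active means growth z-score on choline under -2 at 7 or 20 h with little or no fall on glycerol, limits in tiers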;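 further: stock transfer was 300 nL into about 50 µL; the organism is E. coli; final concentration not given here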
Anaer choline gr early – second read-out of Anaer choline gr, no call of its own (marks repeat the call); z-score; measured here: choline growth z-score, timepoint 1;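 score of optical density at 7 h as mean of two plates; lower means less growth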
An asterisk follows results filed as active; i = inactive; & = joins results of further samples. Not all compounds are listed; rates above refer to the full screens.

SMILES | Anaer choline gr | Anaer choline gr early
CCC(C(=O)N1CCOCC1)n1cnc2nc3c(cc2c1=O)CCCC3 (configuration not stated) | i | -0.82
COc1ccc(-c2nnc(-c3ccccc3)o2)cc1S(N)(=O)=O | i | 0.77
Cc1nn(CC(=O)NCCc2c[nH]c3ccc(Cl)cc23)c(=O)c2noc(C)c12 | i | 1.55
O=C(Nc1ccc(Cl)cn1)c1cnc(N2CCOCC2)c2ccccc12 | i | 0.18
O=C(Cn1cnc2nc3c(cc2c1=O)CCCC3)Nc1cccc(Cl)c1 | i | -0.75
Cc1ncc(-c2ccc(S(=O)(=O)N3CCCCC3)s2)o1 | i | -0.15
O=C(NCc1ccc(F)cc1)c1nccn1Cc1ccc(Cl)cc1 | i | 1.37
O=C(NCc1cccnc1)c1nc(Cn2c(=O)oc3ccccc32)no1 | i | -1.29
CCN1CCN(CCCNC(=O)C2CCCN(C(=O)c3[nH]c(C)c(C(=O)OC(C)C)c3C)C2)CC1 (configuration not stated) | i | -0.03
CCOC(=O)CCc1c(C)nc2nc(CNc3ccc(Cl)cc3)[nH]n2c1=O | i | -0.4
COc1cc2ncc(-c3ccccc3)nc2cc1OC | i | 0.38
O=C(COc1ccccc1)N1CCN(C(=O)c2cc3cc(Cl)ccc3[nH]2)CC1 | i | -0.16
Cc1cccc2cc3c(nc12)N(S(=O)(=O)c1ccc2c(c1)OCCO2)CC3 | i | -0.13
CN1CCN(S(=O)(=O)c2ccc3c(c2)CCN3C(=O)CCC(=O)N2CCOCC2)CC1 | i | -0.34
CCOC(=O)c1ccccc1NC(=O)c1nn(-c2ccc(C)cc2)c(=O)cc1OC | i | 0.71
O=C(O)c1cnc(N2CCC(N3CCCCC3)CC2)c(NS(=O)(=O)c2ccc(F)c(F)c2)c1 | i | 1
Fc1ccc(-c2noc(CSc3ccc(-c4ccc(Br)cc4)nn3)n2)cc1 | i | 0.62
O=C(CN1C(=O)CSc2ncccc21)NC1CCCC1 | i | -0.68
CCc1c(C)nc2nc(NCc3ccccc3)[nH]n2c1=O | i | 1.25
CCCCNc1cc(C)nc2c(C)c(-c3ccc(OC)c(OC)c3)nn12 | i | -0.74
O=C(O)c1cnc(N2CCC(Cc3ccccc3)CC2)c(NS(=O)(=O)c2ccccc2)c1 | i | 0.29
Cc1cc(=O)n2[nH]c(CN(C(=O)C(C)C)c3ccccc3)nc2n1 | i | -0.55
CCc1ccc(NC(=O)C2Sc3nnc(CC)n3NC2c2ccc(Cl)cc2)cc1 (configuration not stated) | i | 0.07
COc1ccc(S(=O)(=O)NC2CCN(C(=O)c3cccc(OC)c3)CC2)cc1 | i | -1.61
COc1ccc2c(c1)NC1(CCN(S(=O)(=O)c3cc(Cl)ccc3OC)CC1)c1cccn1-2 | i | -0.78
O=C(CSc1nc2nc[nH]c2c(=O)[nH]1)NC1CCCCC1 | i | -0.3
Cc1nc(N2CCCCC2C)c2c(C)c(C(=O)N3CCN(c4ccccc4F)CC3)sc2n1 (configuration not stated) | i | 0.58
Cc1cc(C)n(CC(=O)Nc2ccc(F)cc2)c(=O)c1S(=O)(=O)c1ccc(Br)cc1 | i | 0.05
Cc1nnc(-c2ccc(S(=O)(=O)NCc3cccs3)s2)o1 | i | 0.28
Cc1cccc(CN2CC=C(C(=O)Nc3ccc(C)c(Cl)c3)CC2)c1 | i | 0.67

Full records, quoted from the list. Order of screens: Anaer choline gr	Anaer choline gr early
Cc1cccc(CN2CC=C(C(=O)Nc3ccc(C)c(Cl)c3)CC2)c1 is listed with i	0.67
CCc1ccc(NC(=O)C2Sc3nnc(CC)n3NC2c2ccc(Cl)cc2)cc1 (configuration not stated) is listed with i	0.07
Cc1cc(=O)n2[nH]c(CN(C(=O)C(C)C)c3ccccc3)nc2n1 is listed with i	-0.55
Cc1nnc(-c2ccc(S(=O)(=O)NCc3cccs3)s2)o1 is listed with i	0.28
O=C(CSc1nc2nc[nH]c2c(=O)[nH]1)NC1CCCCC1 is listed with i	-0.3

(next part)
SMILES | Anaer choline gr | Anaer choline gr early
Cc1ccc(C)c(CN2C(=O)C(C)CNc3ccccc32)c1 (configuration not stated) | i | -0.79
COc1ccc(Oc2ccc(-c3cccc(C(=O)NC4CC4)c3)nn2)cc1 | i | -0.75
COc1cccc(NC(=O)n2ncc3cc(Cl)ccc32)c1 | i | 0.93
CCCCn1c(CN2CCCC2)nc2cc(NC(=O)C3CCCCC3)ccc21 | i | 0.02
CC1CCCN(S(=O)(=O)c2cc(C(=O)N3CCc4ccccc4C3)n(C)c2)C1 (configuration not stated) | i | 0.91
CC1CCN(S(=O)(=O)c2ccc3c(ccn3CCC(=O)NCCC3=CCCCC3)c2)CC1 | i | 1.18
CN1CCC2(CCN3CCc4c(oc5ccccc45)C3C2)N(C)C1=O (configuration not stated) | i | 0.8
Cn1c(SCC(=O)NCc2ccccc2)nc2c(-c3ccccc3)csc2c1=O | i | 0.86
Fc1ccc(-c2nnc3sc(CN4CCc5ccccc5C4)cn23)cc1 | i | -0.05
O=C(NCCN1CCCCC1)c1cc2ccccc2[nH]1 | i | 0.62

Rewritten tab-delimited: part of the list above.
smiles	Anaer choline gr	Anaer choline gr early
COc1cccc(NC(=O)n2ncc3cc(Cl)ccc32)c1	i	0.93
COc1ccc(Oc2ccc(-c3cccc(C(=O)NC4CC4)c3)nn2)cc1	i	-0.75

Four compounds out of the list above, ordered by the value under Anaer choline gr early, falling.
SMILES | Anaer choline gr | Anaer choline gr early
COc1cccc(NC(=O)n2ncc3cc(Cl)ccc32)c1 | i | 0.93
CCCCn1c(CN2CCCC2)nc2cc(NC(=O)C3CCCCC3)ccc21 | i | 0.02
COc1ccc(Oc2ccc(-c3cccc(C(=O)NC4CC4)c3)nn2)cc1 | i | -0.75
Cc1ccc(C)c(CN2C(=O)C(C)CNc3ccccc32)c1 (configuration not stated) | i | -0.79

Following part
SMILES | Anaer choline gr | Anaer choline gr early
Cc1ccc(C)c(OCc2nc(C)c(C(=O)Nc3nnc(C4CC4)s3)s2)c1 | i | -1.06
CCc1ccc(C(C)NC(=O)C2(c3ccc(NC(=O)NC)cc3)CCC2)cc1 (configuration not stated) | i | -1.48
O=C(O)c1cc(NS(=O)(=O)c2cc(F)ccc2F)cnc1N1CCOCC1 | i | 0.51
Cc1noc(C)c1S(=O)(=O)Nc1ccc(C2(C(=O)NC(C)C)CC2)cc1 | i | -0.38
O=C(c1cc(-c2ccccc2)n[nH]1)N1CCN(c2ccc(N3CCOCC3)nn2)CC1 | i | 0.17
CCOC(=O)c1[nH]c(C)c(S(=O)(=O)Nc2ccc(S(N)(=O)=O)cc2)c1C | i | -0.04
COc1cccc(NC(=O)CN2C(=O)C(C)CSc3ccc(S(=O)(=O)N4CCCC4)cc32)c1 (configuration not stated) | i | -1.97
CC1(C(=O)NC2CCCCC2)Cn2c(cc3ccccc32)C(=O)N1Cc1ccc(Cl)cc1 (configuration not stated) | i | 0.81
O=C(c1cc(C2CC2)on1)N1CCCCC1 | i | -0.09
CCCn1c(=O)sc2cc(S(=O)(=O)N3CCN(C(=O)c4sc(C)nc4C)CC3)ccc21 | i | -0.37
COc1cc(C2C3=C(CC(C)(C)CC3=O)Nc3onc(C)c32)ccc1O (configuration not stated) | i | 1.7
CNS(=O)(=O)c1cc(-c2ccno2)oc1C | i | -0.93
COc1ccc(-c2nnc3c4cnn(Cc5ccccc5)c4ncn23)cc1OC | i | 0.46
C#C[C@]1(O)CC[C@H]2[C@@H]3CCC4=C(CCC(=O)C4)[C@H]3CC[C@@]21C | i | -0.28
O=S(=O)(c1cc(-c2ccno2)cs1)N1CCN(c2ncccn2)CC1 | i | -0.15
Cc1cc(C(=O)O)sc1C(N)C(=O)O (configuration not stated) | i | 0.29
O=C(Cn1nc(N2CCN(c3ccccc3)CC2)ccc1=O)NCCC1=CCCCC1 | i | 1.86
CCc1cc2c(NCc3ccc4c(c3)OCO4)ncnc2s1 | i | -0.49
O=C(Nc1cccc(-c2noc(C3CC3)n2)c1)C1CC(=O)N(C2CCCC2)C1 (configuration not stated) | i | 0.32
CCCCCn1c(=O)c2sccc2n2c(CCC(=O)N3CCN(c4ccccn4)CC3)nnc12 | i | 0.34
O=C(Cn1c(=O)n(-c2ccc(CC(=O)NC3CC3)cc2)c(=O)c2ccccc21)Nc1ccccc1F | i | 0.37
O=C(c1ccc2c(c1)CCCN2S(=O)(=O)c1ccccc1)N1CCN(c2ccccc2)CC1 | i | -0.5
Cc1nc(CN2C(=O)COc3ccc(S(=O)(=O)NCCC4=CCCCC4)cc32)no1 | i | -1.03
COc1cccc(C2=NC3(CCNCC3)NC(c3cc(Br)ccc3O)C2)c1 (configuration not stated) | i | 1.45
OCCNc1nc(Nc2ccc(Cl)cc2)c2cnn(-c3ccccc3)c2n1 | i | 0.38
CCCCC(F)(F)C(=O)CCC1C(O)CC(=O)C1CCCCCCC(=O)O (configuration not stated) | i | 0.45
COc1ccccc1-c1nnc(C2CCN(S(=O)(=O)c3c(C)cc(C)cc3C)CC2)o1 | i | 0.38
Cc1cccn2c(=O)cc(COc3ccccc3NC(=O)Nc3ccc(Cl)cc3)nc12 | i | 0.12
COc1cc(OC)cc(C(=O)Nc2nc(CC(=O)NCC(C)C)cs2)c1 | i | -0.53
COc1ccc(C2(c3nc(-c4ccc5c(c4)ncn5CCC(=O)N4CCCC4)no3)CC2)cc1 | i | 0.59
O=c1c2c(-c3ccccc3)ccnc2[nH]n1-c1ccccc1 | i | 0.66
Cc1nc2ccccc2n(Cc2ccc(C(=O)NCc3ccccn3)cc2)c1=O | i | -0.98
CCSc1nc2ccc(NS(=O)(=O)c3cc(C)ccc3C)cc2s1 | i | 1
Cc1nc(-c2csc(S(=O)(=O)NCc3ccc(F)cc3Cl)c2)sc1C | i | -0.73
Cc1cc2n(n1)CCC(=O)N2C(C)C(=O)Nc1ccc(Cl)cc1 (configuration not stated) | i | -0.32
O=C(Cn1ccn2nc(-c3ccc4c(c3)OCO4)cc2c1=O)Nc1ccc2c(c1)OCO2 | i | 0.29
COc1ccc(OC)c(NC(=O)N2CCC(n3cnc4ccccc4c3=O)CC2)c1 | i | 0.13
COCCN=C1Nc2cc(C)c(C)cc2NC12CCCCCC2 | i | -1.14
O=c1c(OC2OC(CO)C(O)C(O)C2O)c(-c2ccc(O)c(O)c2)oc2cc(O)cc(O)c12 (configuration not stated) | i | 0.59&0.44
Cc1cc(Br)ccc1NC(=O)Cn1cnc2c(nc3n2CCCCC3)c1=O | i | -1.04
CSc1ncn(-c2nc(NC(C)C)nc(NC(C)C)n2)n1 | i | 0.64
Cc1ccc(C)c(N2CCN(C(=O)Nc3c[nH]c4c(C)cccc4c3=O)CC2)c1 | i | -0.21
O=C(Cn1nc(N2CCN(c3ccc(F)cc3)CC2)ccc1=O)NC1CCCCC1 | i | -0.84
CCOC(=O)Cc1ccc(NC(=O)Nc2nc(-c3ccccc3)cs2)cc1 | i | 0.76
NNc1nncc2ccccc12 | i | 0.68
Cc1ccccc1-c1nc2scc(CCNC(=O)c3cccc(Br)c3)n2n1 | i | 0.35
C=CCN1CCN(c2ccc3nnc(CCc4nc(-c5ccc(OC)cc5)no4)n3n2)CC1 | i | 1.22
CCCCN(CCCC)C(=O)C1CCCN1S(=O)(=O)c1cccc2nsnc12 (configuration not stated) | i | -0.05
Cc1ccc(NC(=O)Nc2nnc(SCC(=O)N3CCCCC3)s2)cc1 | i | -0.6
CCC(SC1=Nc2ccccc2C2=NC(C)C(=O)N12)C(=O)Nc1ccc(OC)cc1OC (configuration not stated) | i | -1.2
(further entries)
SMILES | Anaer choline gr | Anaer choline gr early
CN1CCN(c2ccc(-c3nc(-c4ccc(F)cc4)no3)nn2)CC1 | i | -2.07
CCOC(=O)c1[nH]c(C)c(CN(C2CCCCC2)S(=O)(=O)c2c(C)nn(C)c2C)c1C | i | -1.83
CCOc1ccc2c(c1)C(C)=CC(C)(C)N2 | i | 0.65
Cc1ccc(CCNC(=O)c2ccc(NC(=O)N3CCSc4ccccc43)cc2)cc1 | i | -1.22
Cc1noc(C(=O)Nc2cccc(Cl)c2)c1Cl | i | 0.69
CCN(CC)c1nc(NC)nc(-n2cnc(SC)n2)n1 | i | 0.21
Cc1ccc(Cn2cccc2CNS(=O)(=O)c2cnn(C(F)F)c2C)cc1 | i | -0.71
COc1ccc(NC(=O)c2cc(C)no2)cc1 | i | -0.9
OCC1O[C@H](O)C(Cl)C(O)C1O (some centres not stated) | i | -0.52
O=C(NCc1c(-c2ccc(F)cc2)nc2n1CCS2)c1cncc(Br)c1 | i | -0.69
Cc1cc(C)c2nc(N3CCCC(C(=O)NCCc4ccc(S(N)(=O)=O)cc4)C3)sc2c1 (configuration not stated) | i | 0.28
O=C(NCc1cccc(Cl)c1)C1CCn2c(nc3ccccc32)C1 (configuration not stated) | i | -2.41
COc1ccc(-n2c(/C=C/c3c(C)n(C)c4ccc(OC)cc34)nc3ccccc3c2=O)cc1 | i | -0.51
Cc1cc(-c2nc(-c3ccccc3C)no2)n[nH]1 | i | -1
Cc1cc(C)n2nc(CN(Cc3ccccc3)S(=O)(=O)c3ccccc3)nc2n1 | i | 0.59
Cc1nn(-c2cc(N3CCCC3)ncn2)c(C)c1CCC(=O)NCc1ccccc1Cl | i | 0.3
Cc1cc(C)c(C=C2C(=O)Nc3ccccc32)[nH]1 | i | 0.84
COC(=O)c1sccc1NC(=O)n1ncc2ccccc21 | i | -0.14
Cc1[nH]c(C)c(S(=O)(=O)NCc2ccco2)c1-c1nnc(C2CCC2)o1 | i | -0.02
Cc1c(-c2nnc(C(=O)NCc3ccc4c(c3)OCO4)o2)oc2c(C)cccc12 | i | 1.39
Cn1c(=O)n(CCN2CCOCC2)c(=O)c2c1nc1n2CCCN1c1ccc(Br)cc1 | i | 1.14
Cc1cccc2c1Oc1nc(-c3cc(Cl)ccc3O)[nH]c(=O)c1C2 | i | -0.03
O=C(NCC1CCCCC1)C1CCN(c2ccc3nncn3n2)CC1 | i | 0.69
CCc1cccc(-n2nnnc2N2CCN(C(=O)Nc3ccc(C)c(F)c3)CC2)c1 | i | 0.46
CC1CCN(S(=O)(=O)c2ccc(CNC(=O)c3ccc(Br)o3)s2)CC1 | i | 0.27
CCOC(=O)C1CCN(C(=O)c2cccc(C3CCCN(C(=O)NC(C)C)C3)c2)CC1 (configuration not stated) | i | -0.45
